Mtb MbtI inh: MbtI salicylate synthase inhibition. P9WFX0. purified MbtI enzyme, fluorescence intensity read-out. inhibition, %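 (about 17 µg/mL by stock and volumes)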. 0.89% of 100,000 active;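 active = above 50% in both replicates, above 80% if mildly self-fluorescent; inactive = the rest, strongly fluorescent compounds included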;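 note: 0% = mean of negative and 100% = mean of positive controls; one replicate is shown; some compounds called inactive have numbers as strong as hits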
Target sequence (P9WFX0 whole entry, looked up): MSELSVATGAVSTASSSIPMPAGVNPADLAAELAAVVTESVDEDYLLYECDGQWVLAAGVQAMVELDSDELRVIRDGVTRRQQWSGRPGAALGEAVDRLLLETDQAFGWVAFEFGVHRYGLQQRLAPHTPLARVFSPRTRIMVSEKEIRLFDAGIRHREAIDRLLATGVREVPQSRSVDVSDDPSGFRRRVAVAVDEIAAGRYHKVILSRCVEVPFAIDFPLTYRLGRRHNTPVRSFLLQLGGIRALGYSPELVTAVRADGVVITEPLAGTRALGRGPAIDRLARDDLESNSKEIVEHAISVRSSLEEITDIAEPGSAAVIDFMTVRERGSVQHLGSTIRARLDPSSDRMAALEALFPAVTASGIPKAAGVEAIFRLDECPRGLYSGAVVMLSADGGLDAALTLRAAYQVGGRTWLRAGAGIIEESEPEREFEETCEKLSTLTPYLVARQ
Polio RdRp inh: inhibitors of poliovirus RNA polymerase binding and polymerization | % elongation, % (compound at 16.7 µg/mL) | AID 588519 | P03300 | 0.66% of 150,000 active | poliovirus polymerase elongation, fluorescence polarization; stronger effect = lower value; in the data active = % elongation below about 90%; note: some results filed as inactive read as strong as hits
Mtb MenB inh: inhibitors of Mycobacterium tuberculosis MenB enzyme. MenB enzyme assay, absorbance read-out; some hits fall short of the stated cut. P9WNP5. inhibition, %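 (about 12 µg/mL by stock and volumes)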. AID 540299. 0.43% of 100,000 active;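 active = mean of two replicates above 30%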;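 note: 0% = no compound and 100% = wells with inactive enzyme; the first replicate is given; strong numbers were not always called active; inactives centre near -10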
Target sequence (P9WNP5 whole entry, looked up): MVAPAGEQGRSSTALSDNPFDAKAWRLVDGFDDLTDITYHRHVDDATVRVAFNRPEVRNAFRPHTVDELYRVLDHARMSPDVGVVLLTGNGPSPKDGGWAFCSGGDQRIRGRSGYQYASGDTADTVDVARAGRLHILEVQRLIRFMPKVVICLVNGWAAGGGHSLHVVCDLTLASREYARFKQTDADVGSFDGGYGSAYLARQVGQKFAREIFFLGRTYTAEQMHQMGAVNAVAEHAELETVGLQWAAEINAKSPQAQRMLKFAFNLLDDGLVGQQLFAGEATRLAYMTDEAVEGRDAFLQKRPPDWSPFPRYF
Polio RdRp inh intensity: further read-out of Polio RdRp inh, marked with its call; % elongation; measured here: total intensity read-out; formula for this scale not given here;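 total fluorescence in place of polarization; lower means less elongation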
The depositor's hits bear a star; x = no result given.

Value order – Mtb MbtI inh	Polio RdRp inh	Polio RdRp inh intensity	Mtb MenB inh
> CCNC(=O)c1ccc2c(c1)sc1nc(-c3ccccc3)cn12
    -68	104	97	-12
> CC(NC(=O)c1cccnc1Cl)c1nc(-c2ccncc2)n[nH]1 (stereo unspecified)
    -2	102	103	-51
> CCn1ccc(C(=O)Nc2nccs2)n1
    4	103	106	-5
> CC(C(O)c1ccc(O)cc1)N1CCC(Cc2ccccc2)CC1 (stereo unspecified)
    -14	102	97	-27
> CN(C)S(=O)(=O)c1ccc(C(=O)Nc2ccnn2C2CCCCC2)cc1
    -2	102	109	-5
> C[C@@H]1CC[C@H]2C(C)(C)C3CC12CCC3(C)O (stereo partly specified)
    -9	101	101	-10
> COc1ccc(-c2csc(-c3ccc(OC)cc3)n2)cc1
    -1	103	110	9
> Cc1nc2nc[nH]n2c(=O)c1NC(=O)NC1CCCC1
    1	99	102	-15
> O=C1CCCC(O)=C1N=Nc1ccc2ncsc2c1
    32	97	92	-363
> O=C(O)Cc1ccc(O)cc1
    6	103	107	-9
> Cc1sc(NC(=O)C(C)Oc2ccc(Cl)cc2Cl)c(C(N)=O)c1C (stereo unspecified)
    x	75*	79*	-23
> O=C(/C=C/c1ccc(Br)cc1)Nc1ccccn1
    6	103	103	0
> Fc1ccc(C(c2nnc(-c3ccccc3)o2)N2CCc3ccccc3C2)cc1 (stereo unspecified)
    -5	103	102	-40
> CC(=O)N1CCN(CC(O)COc2ccc(Br)cc2)CC1 (stereo unspecified)
    -6	103	100	7
> Cc1ccc(C(=O)CCCn2nnc(-c3ccncc3)n2)cc1C
    2	101	102	17
> Cc1ccc(CNc2ccc(N3CCOCC3)cc2)cc1
    26	101	103	6
> O=C(O)CSc1ncnc2c1nnn2Cc1ccccc1F
    14	98	100	0
> C1CCC(CN2CCOCC2)CC1
    -1	99	103	-21
> CCCN1CCN(CCCNC(=O)CN2C(=O)C(c3ccccc3)Oc3cccnc32)CC1 (stereo unspecified)
    -8	101	103	12
> Cc1ccc(-c2oc(N)c(C#N)c2-c2ccc(C)cc2)cc1
    -23	99	103	-2

Molecules from the list above containing fluorine:
Value order – Mtb MbtI inh	Polio RdRp inh	Polio RdRp inh intensity	Mtb MenB inh
> Fc1ccc(C(c2nnc(-c3ccccc3)o2)N2CCc3ccccc3C2)cc1 (stereo unspecified)
    -5	103	102	-40
> O=C(O)CSc1ncnc2c1nnn2Cc1ccccc1F
    14	98	100	0

(listing goes on)
Value order – Mtb MbtI inh	Polio RdRp inh	Polio RdRp inh intensity	Mtb MenB inh
> O=C(NCC1CCCO1)c1ccc2c(c1)sc1nc(-c3ccccc3)cn12 (stereo unspecified)
    -18	102	105	-39
> O=C(COc1ccccc1C(=O)NCc1ccccc1)Nc1cccc2nsnc12
    -9	102	103	9
> CC1CN(c2ccc(NC(=S)Nc3ccc(N4CC(C)OC(C)C4)cc3)cc2)CC(C)O1 (stereo unspecified)
    -2	112	108	-12
> O=C(Nc1ccccc1)Nc1ccccn1
    x	106	107	-27
> c1cnc(-c2nnc3sc(C45CC6CC(CC(C6)C4)C5)nn23)cn1
    19	99	101	-11
> C[C@H]1O[C@H](OC2[C@@H](O)[C@@H](O)C(O)[C@H](O)[C@H]2O)[C@@H](N)C[C@@H]1N=C(N)C(=O)O (stereo partly specified)
    -4	99	102	0
> Cc1nc(Sc2nc3ccccc3o2)c2c3c(sc2n1)CCCC3
    39	100	107	-11
> CN(C)c1ccc(/C=C2\CCC=C2N2CCOCC2)cc1
    17	44	240	-133
> O=C(Nc1ccc(-c2ccc(N3CCCCC3)nn2)cc1)C(F)(F)F
    10	103	104	10
> CC1=C(C#N)C2(O)C(=O)c3ccccc3C2(O)N1 (stereo unspecified)
    -2	99	102	-30
> CC(c1ccccc1)n1c(SCC(=O)c2cc(-c3ccccc3)no2)n[nH]c1=O (stereo unspecified)
    8	103	103	-38
> Cc1cc(NC(=O)CC#N)n(-c2ccccc2)n1
    -7	95	101	3
> Cc1nn(CCCC(=O)NC2CCCCC2C)c(=O)c2cc3sccc3n12 (stereo unspecified)
    -1	100	104	9
> COc1cccc(NC(=S)NC(C)(C)C)c1
    3	101	101	-8
> O=CN1CCN(C(=O)CCc2ccccc2)CC1
    -11	100	101	-16
> Cc1ccc(CN(C)c2nc(CN3CCOCC3)nc3sc4c(c23)CCC4)o1
    21	x	x	-24
> Cc1cccc2cc(CN(CCO)S(=O)(=O)c3ccc(Cl)cc3)c(=O)[nH]c12
    -60	104	101	-8
> CC(Sc1ccc(Cl)cc1)C(=O)NCC1CCCO1 (stereo unspecified)
    -5	99	100	-16
> FC(F)(F)c1[nH]ncc1-c1nnnn1-c1ccccc1
    17	101	101	-22
> O=C(CC1CCCCC1)Nc1ccc(N2CCOCC2)cc1N1CCOCC1
    -4	99	102	-25

Entries of single compounds from above:
Record of Cc1nc(Sc2nc3ccccc3o2)c2c3c(sc2n1)CCCC3 = Mtb MbtI inh = 39; Polio RdRp inh = 100; Polio RdRp inh intensity = 107; Mtb MenB inh = -11
Record of Cc1cc(NC(=O)CC#N)n(-c2ccccc2)n1 = Mtb MbtI inh = -7; Polio RdRp inh = 95; Polio RdRp inh intensity = 101; Mtb MenB inh = 3

Going on with the list:
Value order – Mtb MbtI inh	Polio RdRp inh	Polio RdRp inh intensity	Mtb MenB inh
> CC1CC(=O)N(Cc2ccccc2F)c2ccccc2S1(=O)=O (stereo unspecified)
    2	102	102	-37
> CO[C@H]1[C@H](O)[C@@H](O[C@H]2CC[C@]3(C=O)C4CC[C@]5(C)[C@@H](C6=CC(=O)OC6)CC[C@]5(O)C4CC[C@@H]3C2)O[C@@H](C)[C@@H]1O (stereo partly specified)
    -8	100	102	0
> CCOC(=O)c1cc(C#N)c(=S)[nH]c1N
    78	106	109	-4
> Fc1ccc(-c2cn3ccccc3n2)cc1
    -251	103	102	6
> O=C(CCN1C(=O)C2CC=CCC2C1=O)NCc1ccccc1 (stereo unspecified)
    11	103	105	9
> COC(=O)c1cccc(COC(=O)c2cc(=O)[nH]c3ccccc23)c1
    -25	102	104	-18
> Cc1ccc2c(c1)c(-c1ccccc1)c(-c1ccccc1)n2CC(O)CNCc1ccco1 (stereo unspecified)
    104	101	97	-1
> O=C(COC(=O)C12CC3CC(CC(O)(C3)C1)C2)c1ccc[nH]1
    -8	105	107	-21
> CCCNC(=O)c1nn(C)c2c1CCc1sccc1-2
    11	102	102	-25
> CCOC(=O)/C(C)=N\O
    -6	99	105	-7
> C=CCS/C(=N\n1cnc2ccccc2c1=O)N1CCCCC1
    x	100	109	-3
> CCCCn1c(=O)[nH]c(=O)c2c(C(=O)OCC)cc(-c3ccccc3Cl)nc21
    -4	104	101	-34
> Cc1csc(=O)n1CC(=O)NC1CCCc2ccccc21 (stereo unspecified)
    -3	95	100	5
> CC1=CS/C(=C(/C#N)C(N)=O)N1c1ccccc1
    -9	100	104	-19
> CC(NC(=O)c1nc2ncccn2n1)c1ccccc1 (stereo unspecified)
    -13	101	105	-3
> O=C(C1CCCC1)N1CCN(c2cnn(-c3ccccc3)c(=O)c2Cl)CC1
    12	98	100	12
> O=C(COC(=O)c1ccccc1Br)c1cccs1
    -12	102	106	x
> Cc1cc(C(=O)N(C)Cc2ccccc2)on1
    -2	101	102	-14
> CC(=C\c1ccccc1)/C=C1/SC(=O)NC1=O
    -24	101	105	7
> Cc1ccc2cc(CN(Cc3ccccc3)C(=O)c3ccccc3C)c(=O)[nH]c2c1
    x	106	109	-24

A second format for 3 compounds above.
structure,Mtb MbtI inh,Polio RdRp inh,Polio RdRp inh intensity,Mtb MenB inh
Cc1ccc2cc(CN(Cc3ccccc3)C(=O)c3ccccc3C)c(=O)[nH]c2c1,x,106,109,-24
Cc1csc(=O)n1CC(=O)NC1CCCc2ccccc21 (stereo unspecified),-3,95,100,5
CC1CC(=O)N(Cc2ccccc2F)c2ccccc2S1(=O)=O (stereo unspecified),2,102,102,-37

More results follow:
Value order – Mtb MbtI inh	Polio RdRp inh	Polio RdRp inh intensity	Mtb MenB inh
> COC(=O)N/N=C/c1ccc(-c2ccccc2)o1
    18	103	101	-21
> Cc1ccc2c(c1)nnn2C1CCN(C(=O)Nc2ccc(C#N)cc2)CC1
    1	103	104	-14
> CC(NC(=O)c1ccccc1NC(=O)c1ccccc1)C(=O)N1CCCC1 (stereo unspecified)
    21	103	103	x
> CC(C)(C)c1ccc(C(=O)N(CC#N)CC#N)cc1
    x	102	95	-3
> N#Cc1ccc(C2=NC(C(F)(F)F)(C(F)(F)F)c3c(n(Cc4ccco4)c(=O)[nH]c3=O)N2)cc1
    -7	100	100	4
> Cc1ccc(S(=O)(=O)NC(O)C(=O)c2cccs2)cc1 (stereo unspecified)
    -5	102	107	-5
> O=C(NCCCc1ccccc1)c1c(O)nc2sccn2c1=O
    -6	102	101	-3
> CCOC(=O)c1sc(SCc2c(Cl)cccc2Cl)c(S(=O)(=O)C(C)C)c1N
    4	110	111	-24
> COc1cc(OC)cc(-n2c(-c3ccco3)nc3nc4ccccc4nc32)c1
    -19	x	x	-31
> O=S(=O)(NCc1cccnc1)c1cccc2nsnc12
    -15	99	98	-20
> Cc1nccc(-c2cc(-c3cccc(C(F)(F)F)c3)no2)n1
    -4	105	109	10
> COC(=O)c1ccc2c(c1)C1C3CCC(C3)C1C(c1ccccc1)N2 (stereo unspecified)
    64	102	103	2
> CC1(C)CC(=O)C=C(NCc2ccccc2)C1
    13	102	96	x
> O=C(CSc1nc2ccccc2o1)Nc1ccccc1
    -8	99	105	-1
> Cc1cc(OCC(=O)N(c2ccccc2)C2CCCCC2)c2ccccc2n1
    2	104	105	-18
> O=C1CC(c2ccccc2)CN1C(=O)c1ccccc1Cl (stereo unspecified)
    x	99	85	-16
> O=C1/C(=C/c2cccs2)SC(=S)N1C1CCCCC1
    7	100	97	-2
> CS/C(=C(/C#N)S(=O)(=O)c1ccc(Cl)cc1)N1CCOCC1
    4	101	97	-10
> NS(=O)(=O)c1cc(C(=O)OCC(=O)NC2CC2)ccc1Cl
    -9	102	107	2
> CC(C)OC(=O)C(C)Oc1ccc2c3c(c(=O)oc2c1)CCC3 (stereo unspecified)
    115	104	102	3

(more compounds)
Value order – Mtb MbtI inh	Polio RdRp inh	Polio RdRp inh intensity	Mtb MenB inh
> CC(C)N(C(=O)NCc1ccccc1)C(C)C
    -15	102	109	12
> CC(C)N(Cc1ccccc1)C(=O)c1ccccc1
    -18	100	102	-24
> [O-]/[N+](=C\c1ccco1)C/C(=N/O)c1cccs1
    11	99	102	-22
> CCOC(=O)CC(=O)c1sc(SCc2ccccc2)nc1N
    -12	101	105	-94
> Cn1ccsc1=NC(=O)COc1cccc2ccccc12
    12	106	109	-18
> Cc1cccc(N2CC(C(=O)O)CC2=O)c1 (stereo unspecified)
    -7	102	103	-8
> CC(c1ccccc1)C1C(C#N)=C(N)SC(N)=C1C#N (stereo unspecified)
    32	100	104	-42
> C=CCSc1n[nH]c(-c2ccc(OC)cc2)n1
    7	101	105	10
> CN(C)c1cccc(N(C)C)c1CNC(=O)NC(=O)c1c(Cl)cccc1Cl
    8	100	100	-15
> CCOC(=O)c1cnc2c(C)cc(Cl)cc2c1Cl
    5	103	103	5
> CCc1nc2cccnc2n1CCNC(=O)Nc1ccc(OC)cc1
    9	101	108	-6
> CCOc1ccc(N2C(=O)N(CC(=O)N3CCCCC3C)c3ccccc3S2(=O)=O)cc1 (stereo unspecified)
    1	103	98	6
> O=C(NCCc1ccccc1)c1nnc(CS(=O)(=O)c2ccccc2)o1
    -3	100	105	1
> CCOc1ccc(N(C)S(=O)(=O)c2cnc[nH]2)cc1
    -7	99	102	-2
> CCN(CC)C(=S)SCc1nc(N)nc(Nc2ccc(C)cc2)n1
    -3	100	101	-11
> O=C(CSc1ncccc1C(=O)O)c1ccccc1F
    30	100	94	-22
> Cc1c(C=Nc2ccc(N3CCOCC3)cc2)c2ccccc2n1C
    x	105	107	7
> CC(C)N(C(=O)CSc1nnc(-c2ccco2)n1C)C(C)C
    1	101	99	8
> CC1CCCCC12NC(=O)N(CCC#N)C2=O (stereo unspecified)
    5	101	91	4
> Cc1c(C(=O)N2CCC(C(N)=O)CC2)sc(N)c1C#N
    1	101	105	9

Next compounds
Value order – Mtb MbtI inh	Polio RdRp inh	Polio RdRp inh intensity	Mtb MenB inh
> O=C(NC1CC2CCC1C2)c1ccccc1 (stereo unspecified)
    -8	98	102	4
> C=CCn1c(C)cc(C(=O)CSc2nc(-c3ccccc3)cn2N)c1C
    3	101	105	-2
> CC1N(O)C(C)(C)C(c2ccccc2)=[N+]1[O-] (stereo unspecified)
    -8	104	104	-4
> O=C(OCc1ccc2nonc2c1)c1c2c(nc3ccccc13)CCCC2
    x	106	105	1
> CC(C)c1ccc(-c2nnn(Cc3cc(=O)n4ccsc4n3)n2)cc1
    -51	104	109	-4
> CN(Cc1ccccc1)C(=O)c1c[nH]c2ccc(S(=O)(=O)N3CCOCC3)cc2c1=O
    0	100	95	-12
> Cc1ccc(S(=O)(=O)N(c2nc(N(C)C)nc(N(C)C)n2)n2cnnc2)cc1
    -4	101	106	7
> CC1=C(c2cccc(Br)c2)S(=O)(=O)NC1=NC1CCCC1
    4	103	97	-29
> CCCOc1ccc(C2C(C(=O)OC)=CN(CCOC)C=C2C(=O)OC)cc1
    -431	101	103	-68
> CC1CCC(C(=O)NC(C(=O)NCc2ccccn2)C(C)C)CC1 (stereo unspecified)
    11	101	92	-22
> CC(=O)NC(CC(=O)n1nnc2ccccc21)c1ccccc1 (stereo unspecified)
    13	104	95	10
> Cc1ccc(-n2ncc3c(=O)n(CC(=O)N4CCc5ccccc54)cnc32)cc1C
    57	99	100	-26
> Fc1cccc(Cl)c1CSC(=S)N1CCSCC1
    -9	105	111	-23

An unsorted share of the library; about 2% have a hit in one of these screens.
